Marburg entry inh – qHTS for inhibitors of binding or entry into cells for Marburg Virus | Marburg virus pseudotyped entry inhibition, cell reporter; control for the full effect not named in the record; about a third of the inactives were read at about 46 µM | Potency, µM (series often up to 37.8 µM), for the others: at the top dose activity change, negative = inhibition, actives largely listed as inhibitors | actives 1.8% (n = 300,000); active = well fitted inhibition curve with a large enough effect; inconclusive = small, poorly fitted or top-dose-only effect, or effect the other way; inactive = flat fitted curve, though single readings scatter; tested in HEK293 cells; about a fifth of its hits are not listed in these tables; note: % is set by controls: 0 for no effect and ±100 for the full control effect; luciferase read-out
NS1 function inh – qHTS Assay for Inhibitors of Influenza NS1 Protein Function. S. cerevisiae slowed by influenza A NS1, growth recovery by OD600. actives 0.4% (n = 270,000). Potency, µM (doses to about 46.1 µM), inactives show at the highest dose activity, positive = more growth; note: actives are rising curves; nearly all actives have a fitted effect of over 50% in size
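A cell-based growth assay was used: compounds that relieve NS1-induced slow growth of budding yeast raise OD600. Assay medium was yeast nitrogen base with ammonium sulphate and -URA supplement, pH 6.0, with 2% galactose.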
Cruzain noTriton – qHTS Assay for Promiscuous and Specific Inhibitors of Cruzain (without detergent). Cruzipain (Trypanosoma cruzi), P25779. purified cruzain, Z-FR-AMC fluorescence, no detergent. Potency, µM, for inactives: max response, negative = inhibition, actives largely listed as inhibitors. actives 2.3% (n = 200,000); active = well fitted curve in the direction sought with a large enough effect; inconclusive = small, poorly fitted or top-dose-only effect, or another doubt; inactive = no such curve, though single readings can be large; an effect the other way counts as inactive or inconclusive;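 note: plate controls were enzyme without inhibitor for no effect and buffer without enzyme for full effect; nearly all actives have a fitted effect of over 40% in size; top concentration of the series not given in the record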
Target sequence (P25779 123-467 limits assumed): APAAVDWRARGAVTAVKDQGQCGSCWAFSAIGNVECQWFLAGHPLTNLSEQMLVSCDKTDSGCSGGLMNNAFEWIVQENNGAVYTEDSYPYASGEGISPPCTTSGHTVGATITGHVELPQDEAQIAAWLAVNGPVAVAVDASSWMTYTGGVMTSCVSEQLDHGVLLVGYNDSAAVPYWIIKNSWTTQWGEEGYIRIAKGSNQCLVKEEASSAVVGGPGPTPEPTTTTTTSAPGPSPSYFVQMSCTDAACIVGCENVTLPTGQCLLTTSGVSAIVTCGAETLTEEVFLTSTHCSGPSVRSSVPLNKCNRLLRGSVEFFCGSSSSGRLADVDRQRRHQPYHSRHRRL
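Detergent-free condition (0.00005% Triton X-100) in acetate buffer pH 5.5 with DTT. 1.5 nM enzyme and compound were pre-mixed 15 min, then 2 uM Z-FR-AMC substrate added; reaction progress from fluorescence change between first and third reads (60 s).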
RE007 growth inh – qHTS Assay for Inhibitors of the HIV-1 protein Vpr; S. pombe RE007 Vpr strain, BacTiter-Glo ATP luminescence, 24 h; control for the full effect not named in the record; Potency, µM (series often up to 92.2 µM), without a hit: top-dose activity change, negative = less growth; actives 0.21% (n = 360,000); AID 651644, 2012; active = well fitted falling curve with a large enough effect; inconclusive = small, poorly fitted or top-dose-only effect; inactive = no such curve, though single readings can be large or run the other way;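 note: % is set by controls: 0 for no effect and ±100 for the full control effect; nearly all actives have a fitted effect of over 50% in size; the assay follows cell death caused by Vpr and the record does not say whether a fall means rescue or toxicity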
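Fission yeast strain RE007, carrying one chromosomally integrated HIV-1 vpr copy, was seeded at OD 0.01 in PMG+AL medium with 23 nL pinned compound. After 24 h at 30 °C and 99% humidity, viability was read by BacTiter-Glo luminescence.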
Cruzain Triton – qHTS Assay for Promiscuous and Specific Inhibitors of Cruzain (with detergent). actives 0.43% (n = 200,000). Cruzipain (Trypanosoma cruzi), P25779. purified cruzain, Z-FR-AMC fluorescence, 0.01% Triton. AID 1478, 2009. Potency, µM, without a hit: max response, negative = inhibition, most hits filed as inhibitors; active = well fitted curve in the direction sought with a large enough effect; inconclusive = small, poorly fitted or top-dose-only effect, or another doubt; inactive = no such curve, though single readings can be large; an effect the other way counts as inactive or inconclusive;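 note: plate controls were neutral wells for no effect and buffer without enzyme for full effect; nearly all actives have a fitted effect of over 40% in size; top concentration of the series not given in the record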
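Detergent-containing arm of a paired screen for aggregation-based inhibition: 0.01% Triton X-100 present. Cruzain at 1.5 nM cleaved 2 uM Z-FR-AMC at pH 5.5 with 5 mM DTT; AMC fluorescence gain over 60 s measured activity.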
2A StopGo – High Throughput Screening for Foot and Mouth Disease Virus Antivirals; actives 1.2% (n = 410,000); Potency, µM (doses to about 57.9 µM), for the others: at the highest dose signal change, negative = less light; human cells with a luciferase reporter of 2A StopGo recoding; control for the full effect not named in the record; AID 1159524, 2015; active = well fitted falling curve with a large enough effect; inconclusive = small, poorly fitted or top-dose-only effect; inactive = no such curve, though single readings can be large or run the other way; tested in HEK293T cells; note: % is set by controls: 0 for no effect and ±100 for the full control effect; nearly all actives have a fitted effect of over 45% in size; luciferase light after 4 h
LASV entry inh – qHTS for Inhibitors of binding or entry into cells for Lassa Virus | Lassa virus pseudotype entry inhibition, cell reporter; control for the full effect not named in the record | Potency, µM (highest dose often 37.9 µM), inactives show at the highest dose activity change, negative = inhibition, usual class: inhibitors | actives 1.2% (n = 300,000) | AID 540256, 2011; active means well fitted inhibition curve with a large enough effect; inconclusive means small, poorly fitted or top-dose-only effect, or effect the other way; inactive means flat fitted curve, though single readings scatter; tested in HEK293 cells; note: % is set by controls: 0 for no effect and ±100 for the full control effect; nearly all actives have a fitted effect of over 50% in size; luciferase read-out
SARS PLP yeast – qHTS of Yeast-based Assay for SARS-CoV PLP. S. cerevisiae expressing SARS-CoV PLpro, growth rescue; control for the full effect not named in the record. Potency, µM (series often up to 32.9 µM), without a hit: at the highest dose activity, positive = growth rescue. actives 0.19% (n = 330,000); note: 0% is about no effect; nearly all actives have a fitted effect of over 55% in size; growth read by luminescence after 48 h
Numbers without * were called inactive; u = inconclusive; x = not tested or not shown; & = joins results of further samples; [ ] = another dose, or the depositor's remark. Unless noted, calls come from the whole dose curve; as a rule, active means well fitted rising curve with a large enough effect; inconclusive means small, poorly fitted or top-dose-only effect; inactive means no such curve, though single readings can be large or run the other way. Potency is the fitted concentration of half-maximal effect.

Start of the data: the first 7 records as a preview:
#1 CCCN(CC(=O)Nc1cc(C)on1)S(=O)(=O)c1cccc(C(F)(F)F)c1
#2 C=CCc1ccc(OCCCCN2CC(C)OC(C)C2)c(OC)c1 (configuration not stated)
#3 CC1=Nc2ccccc2NC(=O)C1Sc1nnc(C)s1 (configuration not stated)
#4 Cc1ccc(NC(=O)c2ccc(NCc3ccco3)c([N+](=O)[O-])c2)cc1Cl
#5 CCc1cccc(NC(=O)CC(c2ccc(OC)cc2)N2Cc3ccccc3C2=O)c1 (configuration not stated)
#6 CCc1ccc(C2=NN(CCC(=O)NCC3CCCO3)C(=O)CC2)cc1 (configuration not stated)
#7 Cc1c(C(=O)Nc2ccccc2Cl)sc2ncnc(N(C)C3CCCCC3)c12
Assay by compound,1,2,3,4,5,6,7
Marburg entry inh,-2%[46.1 µM],u,-6%,-26%,x,x,x
NS1 function inh,x,-47%,-4%,-2%,x,-2%,x
Cruzain noTriton,x,-5%,1%,u,-1%,x,3%
RE007 growth inh,-12%,-9%,5%,-24%,x,-1%,x
Cruzain Triton,x,9.5%,-1.6%,1.7%,-5.8%,x,1.1%
2A StopGo,18%,-21%,-13%,-21%,-10%,-13%,10%
LASV entry inh,0%[46.1 µM],-6%,4%,-8%,u,x,4%[46.1 µM]
SARS PLP yeast,2%,6%,-12%,7%,x,3%,x

Main list (from the top)
#1 CCCN(CC(=O)Nc1cc(C)on1)S(=O)(=O)c1cccc(C(F)(F)F)c1
#2 C=CCc1ccc(OCCCCN2CC(C)OC(C)C2)c(OC)c1 (configuration not stated)
#3 CC1=Nc2ccccc2NC(=O)C1Sc1nnc(C)s1 (configuration not stated)
#4 Cc1ccc(NC(=O)c2ccc(NCc3ccco3)c([N+](=O)[O-])c2)cc1Cl
#5 CCc1cccc(NC(=O)CC(c2ccc(OC)cc2)N2Cc3ccccc3C2=O)c1 (configuration not stated)
#6 CCc1ccc(C2=NN(CCC(=O)NCC3CCCO3)C(=O)CC2)cc1 (configuration not stated)
#7 Cc1c(C(=O)Nc2ccccc2Cl)sc2ncnc(N(C)C3CCCCC3)c12
#8 C=CCC(C=C)S(=O)(=O)c1ccc(C)cc1 (configuration not stated)
Assay by compound,1,2,3,4,5,6,7,8
Marburg entry inh,-2%[46.1 µM],u,-6%,-26%,x,x,x,u
NS1 function inh,x,-47%,-4%,-2%,x,-2%,x,-10%
Cruzain noTriton,x,-5%,1%,u,-1%,x,3%,1%
RE007 growth inh,-12%,-9%,5%,-24%,x,-1%,x,1%
Cruzain Triton,x,9.5%,-1.6%,1.7%,-5.8%,x,1.1%,4.1%
2A StopGo,18%,-21%,-13%,-21%,-10%,-13%,10%,11%
LASV entry inh,0%[46.1 µM],-6%,4%,-8%,u,x,4%[46.1 µM],u
SARS PLP yeast,2%,6%,-12%,7%,x,3%,x,5%

#9 COc1ccc(CCNC(=O)c2cccc([N+](=O)[O-])c2)cc1OC
#10 COc1ccc2cc(C#N)c(SCC(=O)Nc3nonc3C)nc2c1
#11 CCCN1/C(=C2/SC(=S)N(CC)C2=O)C=Cc2ccccc21
#12 COc1ccc(-c2csc3ncn(-c4ccccc4)c(=O)c23)cc1OC
#13 O=C(NC1CCCC1)C(=O)N(Cc1cccnc1)C(C(=O)NCc1ccco1)c1ccccc1F (configuration not stated)
#14 COC(=O)CC1SC(=O)NC1=Nc1ccc(C)cc1 (configuration not stated)
#15 CSc1oc(-c2ccco2)nc1S(=O)(=O)c1ccc(C)cc1
#16 Cc1onc(-c2ccccc2)c1C(=O)NCc1cccs1
Assay by compound,9,10,11,12,13,14,15,16
Marburg entry inh,u,u,-5%,u,-3%[46.1 µM],-1%,u,-8%[46.1 µM]
NS1 function inh,x,15%,8%,-6%,2%,4%,8%,-11%
Cruzain noTriton,x,x,-4%,x,x,-2%,x,-5%
RE007 growth inh,-15%,-5%,10%,0%,18%,10%,-2%,-15%
Cruzain Triton,x,x,-1.0%,x,x,6.4%,x,-2.1%
2A StopGo,-21%,4%,-26%,-9%,25%,x,13%,6%
LASV entry inh,4%[46.1 µM],21%,-1%,9%,3%[46.1 µM],7%,11%[46.1 µM],-12%
SARS PLP yeast,x,-2%,27%,1%,0%,2%,0%,4%

#17 CCOC(=O)Nc1nc(-c2ccccc2)c(C(=O)c2ccc(Cl)cc2)s1
#18 O=C(O)CSCCC(=O)Nc1ccc(F)cc1
#19 CCCCn1c(CNC(=O)CCC)nc2ccccc21
#20 O=C(NCc1ccc(Cl)cc1)c1ccc2oc(=O)n(Cc3ccccc3)c2c1
#21 CC1CCN(C(=O)COC(=O)c2ccc3c(c2)C(=O)N(Cc2ccco2)C3=O)CC1
#22 COc1ccc(Cc2noc(CN(C)CCc3ccccc3)n2)cc1OC
#23 Cc1ccccc1NC(=O)Nc1nnc(N(C)Cc2ccccc2)s1
#24 CC(C)OC(=O)CSc1nnc(-c2ccc(Cl)cc2)n1N
Assay by compound,17,18,19,20,21,22,23,24
Marburg entry inh,u,26%,x,x,7%[46.1 µM],-10%[46.1 µM],0%[46.1 µM],9%
NS1 function inh,5%,4%,-7%,x,x,-5%,x,-3%
Cruzain noTriton,-1%,-5%,-1%,23%,x,x,-4%,9%
RE007 growth inh,1%,14%,-7%,x,1%,8%,x,-14%
Cruzain Triton,-0.8%,-0.1%,-4.6%,2.5%,x,x,-8.7%,3.3%
2A StopGo,-18%,-14%,-13%,-27%,-18%,-25%,-7%,9%
LASV entry inh,u,-1%,x,u,22%,-26%,3%[46.1 µM],11%
SARS PLP yeast,-16%,-8%,-5%,x,5%,0%,x,15%

#25 CCc1noc(C)c1C(=O)N(CC)CC(=O)Nc1ccccc1C(F)(F)F
#26 O=C(COc1ccc(-c2nnco2)cc1)Nc1ccc(C(F)(F)F)cc1
#27 COc1ccc(C(C)C)cc1S(=O)(=O)NCCCn1ccnc1
#28 Cc1ccc(CCNC(=O)c2cccc(N3CCCC3=O)c2)cc1
#29 Cc1cc(N2CCC(C(=O)Nc3ccccc3Cl)CC2)n2nc(C)c(-c3ccc(Cl)cc3)c2n1
#30 COc1cc(C(=O)Oc2c(Sc3ccccc3)c(C)nn2-c2ccccc2)cc(OC)c1OC
#31 CNc1nc(SC)nc(N(C)C#N)n1
#32 C/C(=N\NC(=O)COc1ccc2ccccc2c1)c1cccs1
Assay by compound,25,26,27,28,29,30,31,32
Marburg entry inh,-8%,u,-4%[46.1 µM],x,-1%[46.1 µM],u,x,x
NS1 function inh,x,x,13%,6%,x,x,9%,-13%
Cruzain noTriton,x,x,x,x,-4%,-6%,x,x
RE007 growth inh,-8%,4%,1%,1%,x,x,-6%,-15%
Cruzain Triton,x,x,x,x,1.8%,-2.7%,x,x
2A StopGo,4%,-23%,65%[activator],7%,6%,-18%,-15%,31%[activator]
LASV entry inh,16%,13%,12%[46.1 µM],x,-1%[46.1 µM],-2%[46.1 µM],x,x
SARS PLP yeast,25%,0%,-2%,-3%,x,x,2%,-1%

#33 CCS(=O)(=O)Nc1ccc(-c2ccc(NS(=O)(=O)CC)c(OC)c2)cc1OC
#34 COc1cc2[nH]c(=S)nc(NCc3ccc(Cl)cc3)c2cc1OC
#35 Cc1ccc(S(=O)(=O)c2nc(S(=O)(=O)CCO)sc2N2CCOCC2)cc1
#36 NC(=O)c1sc2nccc(Nc3ccccc3)c2c1N
#37 COC(=O)c1cc2n3ccccc3c(C)c(-c3ccccc3)c-2c1C(=O)OC
#38 CC1=C(C#N)C(c2cccnc2)C2=C(CC(C)(C)CC2=O)N1 (configuration not stated)
#39 O=C(Nc1ccc(S(=O)(=O)N2CCCCC2)cc1)C1CC1
#40 COc1cccc(CNC(=O)CCS(=O)(=O)c2cc3c(cc2C)NC(=O)CO3)c1
Assay by compound,33,34,35,36,37,38,39,40
Marburg entry inh,u,x,u,u,-17%,-9%,u,x
NS1 function inh,-12%,2%,7%,7%,21%,1%,7%,-12%
Cruzain noTriton,-8%,x,x,-21%,-1%,23%,x,-1%
RE007 growth inh,0%,-8%,13%,12%,-10%,-1%,8%,-9%
Cruzain Triton,0.2%,x,x,-9.8%,-8.1%,2.9%,x,-2.7%
2A StopGo,u,0%,-10%,-19%,u,-22%,-14%,-15%&-19%
LASV entry inh,-17%,x,u,6%,-23%,-7%,-16%,u
SARS PLP yeast,9%,0%,-1%,-7%,6%,-1%,2%,9%

#41 O=P(O)(CCc1ccccc1)C(O)c1ccccc1 (configuration not stated)
#42 O=S1(=O)c2ccccc2Nc2ccccc21
#43 CCn1c(SCCN2CCCCC2)nc2c1c(=O)n(C)c(=O)n2C
#44 C=CCN=Cc1c(C)[nH]n(-c2ccccc2)c1=O
#45 CCN(c1ccccc1)S(=O)(=O)c1nnc(NC(=O)COc2cccc(C)c2)s1
#46 COc1ccc(NC(=O)COC(=O)CN2C(=O)C3CC=CCC3C2=O)c([N+](=O)[O-])c1 (configuration not stated)
#47 O=C(Nc1cc([N+](=O)[O-])ccc1C(=O)Nc1cccnc1)c1ccccc1
#48 COc1cc(NC(=O)c2ccc3c(c2)OCO3)c2ncccc2c1
Assay by compound,41,42,43,44,45,46,47,48
Marburg entry inh,-23%,-6%[46.1 µM],-2%[46.1 µM],1%,x,7%,x,-25%
NS1 function inh,-2%,2%,x,x,x,x,11%,4%
Cruzain noTriton,7%,x,x,x,8%,x,x,4%
RE007 growth inh,13%,-12%,3%,-8%,x,4%,1%,-7%
Cruzain Triton,4.1%,x,x,x,-1.6%,x,x,-9.3%
2A StopGo,-21%,-11%,-1%,30%[activator],11%,3%,-5%,-3%
LASV entry inh,4%,-21%[46.1 µM],-1%[46.1 µM],-5%,9%[46.1 µM],-1%,-35%,21%
SARS PLP yeast,0%,0%,x,-5%,x,5%,26%,-2%
